Source: PubChem BioAssay (National Center for Advancing Translational Sciences (NCATS))
gsp antagonist = antagonizes gsp, the McCune-Albright syndrome mutation | gsp-mutant cells, cAMP HTRF, 30 min; control for the full effect not named in the record | Potency, µM (series often up to 76.9 µM), without a hit: top-dose activity change, negative = inhibition, most hits filed as inhibitors | 340,000 compounds, 0.4% hits | AID 624288; active = falling curve of any shape with a large fitted effect; inconclusive = falling curve, mostly with a smaller effect; inactive = flat or rising curve; cell line not stated here;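 also: intracellular cAMP measured with PDE inhibitor Ro 20-1724 present during compound exposure; potency is read from the fitted curve at half-maximal effect; % is scaled to controls: 0 for no effect and ±100 for the full control effect; nearly all actives have a fitted effect of over 65% in size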
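Cells, 2000/well, grown 16–24 h in DMEM 10% FBS with 0.5 mg/ml G418, then compounds plus […] (300 uM addition stock), 30 min at 37C. cAMP read by HTRF (cAMP-d2 and anti-cAMP antibody-K in lysis buffer) after 30 min RT.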
Sfp inh = inhibitors of Bacillus subtilis Sfp phosphopantetheinyl transferase; Q9F4F7; AID 1490; Potency, µM, for inactives: max response, negative = inhibition, usual class: inhibitors; Biochemical Sfp PPTase activity, qHTS; 310,000 compounds, 3.5% hits; active = well fitted inhibition curve with a large enough effect; inconclusive = small, poorly fitted or top-dose-only effect, or another doubt; inactive = no such curve, though single readings can be large or run the other way;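 also: the enzyme is Sfp with the accession as filed and its product quenches rhodamine fluorescence; potency is read from the fitted curve at half-maximal effect; 0% = enzyme reaction without inhibitor and -100% = no enzyme wells; top concentration of the series not given in the record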
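Buffer: 50 mM Hepes-Na pH 7.6, 10 mM MgCl2, 0.01% Nonidet P-40, 0.01% BSA. Enzyme 15 nM, pre-exposed to compound 15 min; substrates then added and fluorescence change tracked over 30 min.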
PINK1 expr mod = PINK1 expression modulation; PINK1 immunofluorescence, high-content cytometry, 24 h; Potency, µM (top dose mostly 76.6 µM), for inactives: at the top dose activation (PINK1 increase), usual class: activators; 410,000 compounds, 0.2% hits; active = well fitted activation curve with a large enough effect; inconclusive = small, poorly fitted or top-dose-only effect; inactive = flat fitted curve, though single readings scatter; cell line not stated here;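 also: potency is read from the fitted curve at half-maximal effect; % of control where 0% means no effect; nearly all actives have a fitted effect of over 65% in size; a mitochondrial uncoupler was the plate control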
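Stable cell line, 250 cells/well, 12 h attachment; compounds pinned at 5 concentrations, 24 h; CCCP control. Fixed with nuclear dye, primary antibodies 12 h at 10 degrees C, secondary plus cell stain; laser-scanning cytometer read.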
D2 agonist = agonists of human D2 dopamine receptor (beta-arrestin) | DiscoveRx PathHunter D2 beta-arrestin, luminescence, 90 min; 100% = 57 uM dopamine signal | activation, % (test concentration not listed) | AID 624465 | 360,000 compounds, 0.084% hits; in the data active = activation above about 40%; inconclusive = about 15% to 40%; inactive = below about 15%; also: compound concentration not given in the record; the text of the record calls up to 30% inactive
Target sequence (P14416 whole entry, looked up): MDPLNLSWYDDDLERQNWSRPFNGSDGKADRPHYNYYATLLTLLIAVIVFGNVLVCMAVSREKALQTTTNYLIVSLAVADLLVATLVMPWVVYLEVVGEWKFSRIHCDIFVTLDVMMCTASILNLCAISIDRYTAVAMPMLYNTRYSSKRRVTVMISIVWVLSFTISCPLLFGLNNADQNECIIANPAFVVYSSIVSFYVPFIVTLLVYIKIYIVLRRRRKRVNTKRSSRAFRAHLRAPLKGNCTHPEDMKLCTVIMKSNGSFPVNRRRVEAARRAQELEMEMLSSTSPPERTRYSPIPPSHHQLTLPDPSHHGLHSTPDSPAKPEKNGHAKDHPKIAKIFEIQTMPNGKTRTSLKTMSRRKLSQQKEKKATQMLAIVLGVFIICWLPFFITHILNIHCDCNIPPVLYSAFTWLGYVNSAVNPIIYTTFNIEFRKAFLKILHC
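Agonist mode: compounds alone added to overnight-plated D2 PathHunter cells for 90 min at 37 C, with 57 uM final dopamine (EC100) defining full response. Beta-arrestin recruitment detected by chemiluminescent reagent, read after 1 h at ambient temperature.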
Menin MLL FP FL = displaces fluorescein MLL peptide from human menin; AID 1766; FP activity change, % at 61.4 µM; Fluorescence polarization, fluorescein-MLL peptide displacement from menin; 290,000 tested, under 10 active; inconclusive = falling polarisation curve, or a change in total fluorescence; inactive = total fluorescence flat and polarisation flat or rising; no compound was filed as active; the % refers to the polarisation; negative = inhibition;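 also: % of control where 0% means no effect; inhibitors lower the polarisation; unlabelled MLL peptide was the positive control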
gsp ag = agonists of gsp mutant (McCune-Albright syndrome); gsp mutant cells, cAMP HTRF, 30 min; control for the full effect not named in the record; Potency, µM (top dose mostly 76.9 µM), for the others: at the top dose activation (cAMP increase), actives largely listed as activators; 340,000 compounds, 0.13% hits; AID 624287; active = well fitted activation curve with a large enough effect; inconclusive = small, poorly fitted or top-dose-only effect, or another doubt; inactive = no such curve, though single readings can be large or run the other way; cell line not stated here;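 also: phosphodiesterase inhibitor Ro 20-1724 added with compounds to block cAMP breakdown; potency is read from the fitted curve at half-maximal effect; nearly all actives have a fitted effect of over 60% in size; about a fifth of the inactives were tested at one dose only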
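Cells stably selected in G418 were plated at 2000/well, grown 16-24 hr, then given compounds in DMSO with the PDE inhibitor […] (300 uM solution added) for 30 min at 37C; cAMP was read by HTRF.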
ClpP mod = qHTS Assay for Activators of ClpP | AID 651965, 2013 | purified B. subtilis ClpP, FRET peptide cleavage, 20 min | ATP-dependent Clp protease proteolytic subunit (Bacillus subtilis (strain 168)), P80244 | Potency, µM (highest dose often 57.5 µM), for the others: at the top dose activity change, negative = active | 340,000 compounds, 1.9% hits; active = well fitted falling curve with a large enough effect; inconclusive = small, poorly fitted or top-dose-only effect; inactive = no such curve, though single readings can be large or run the other way; also: potency is read from the fitted curve at half-maximal effect; the source files actives as falling curves though it sought activators and does not explain the sign; nearly all actives have a fitted effect of over 65% in size; many hits overshoot -100%
Target sequence (P80244 whole entry, looked up): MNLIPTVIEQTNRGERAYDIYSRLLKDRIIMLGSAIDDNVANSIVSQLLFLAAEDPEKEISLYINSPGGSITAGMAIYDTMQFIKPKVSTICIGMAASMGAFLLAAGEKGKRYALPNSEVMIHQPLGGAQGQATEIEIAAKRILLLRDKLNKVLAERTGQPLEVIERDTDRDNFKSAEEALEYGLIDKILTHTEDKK
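Buffer: 100 mM Tris/HCl pH8, 100 mM KCl, 0.05% low protease BSA, 2.5% glycerol, 0.01% Tween-20. ClpP 10 microg/mL final; 20 min RT; delta FRET normalized to ADEP and DMSO controls.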
Numbers without * were called inactive; ? = inconclusive; / = no result given; & = joins results of further samples; [ ] = remark or other dose.

SMILES	gsp antagonist	Sfp inh	PINK1 expr mod	D2 agonist	Menin MLL FP FL	gsp ag	ClpP mod
CCN(CC)CCNC(=O)c1ccc(NC(=O)c2ccc(S(=O)(=O)N3CCCCCC3)cc2)cc1	-1.2%	/	13.2%	-3.8	/	?	1.0%
CN(C(=O)c1sc2nc(N3CCOCC3)c3c(c2c1N)CCCC3)c1ccccc1	?	?	0.1%	2.2	-0.5	-4.8%[15.4 µM]	/
C=CCOC(=O)c1[nH]c2c(c1C)C(=O)CC(c1ccco1)C2 (configuration not stated)	4.8%	?	3.4%	-1.0	2.0	?	-10.8%
CCOC(=O)c1c(C)[nH]c(C)c1S(=O)(=O)NCCN1CCN(c2ccccc2F)CC1	-11.2%	5.2%	-1.5%	-2.5	0.6	?	-3.7%
COc1ccc(-c2oc3ncn(CCN4CCOCC4)c(=N)c3c2-c2ccc(OC)cc2)cc1	-6.5%	?	8.9%[38.3 µM]	1.3	1.2	?	1.9%
Cc1ccccc1C1NC(c2ccccc2C)C([N+](=O)[O-])C(C)(C)C1[N+](=O)[O-] (configuration not stated)	-8.2%	?	-0.5%	7.4	-1.1	9.4%	/
COc1ccccc1CNC(=O)/C=C/c1ccc(Br)o1	-3.0%	10µM*	-1.0%	0.3	0.0	-10.0%[15.4 µM]	6.4%
CCOC(=O)N=Nc1c(O)n(Cc2ccccc2)c2ccccc12	-24.6%	?	0.3%	-0.1	-2.2	-1.1%	-0.1%
O=C(CN1C2CCCC1CC(NC(=O)c1ccco1)C2)Nc1ccccc1C(F)(F)F (configuration not stated)	-11.5%	16.9%	0.1%	1.4	3.0	-9.7%	0.4%
CN(C)CCNC(=O)CCn1nc(-c2ccc(Cl)cc2)ccc1=O	-0.9%	6.6%	1.1%	-1.5	5.1	18.6%	/
NNC(=O)CC12CC3CC(C1)CC(n1ncnn1)(C3)C2	13.2%	26.0%	-1.2%	-4.3	5.8	4.6%	-0.5%
COc1ccc2c(c1)C(=O)[C@H](O)[C@@H](c1ccc(OC)c(Br)c1)O2	-10.8%	-2.1%&-13.8%	?	-12.7	4.0&5.8	/	-9.0%
Cc1ccc(NS(=O)(=O)c2ccc(CCC(=O)N3CCCC3)cc2)cc1	-6.8%	20.2%	0.2%	-1.1	-1.6	-15.9%[15.4 µM]	/
CN(CC(=O)NCc1ccco1)C(=O)C1CC(=O)N(c2ccc3c(c2)OCCO3)C1 (configuration not stated)	-0.6%	/	0.2%	-5.6	/	-14.9%	-0.9%
COc1ccc(/C=C/c2c(-c3ccccc3OC)sc3ccccc23)cc1OC	2.3%	/	-2.0%	-3.3	/	/	3.4%
COc1ccc(-c2ccc(SCC(=O)N3CC(=O)Nc4ccccc43)nn2)cc1	-3.7%	6.0%	-2.8%	8.4	1.3	-2.9%	/
CCC(C(=O)Nc1ccc(S(=O)(=O)N(C)C2CCN(C)CC2)cc1)c1ccccc1 (configuration not stated)	6.2%	/	0.2%	1.9	/	-8.2%	-4.4%
O=C(NNC1CC(=O)N(c2ccc(Br)cc2)C1=O)c1cccnc1 (configuration not stated)	2.0%	7.8%	-0.1%	-5.1	5.0	4.1%[15.4 µM]	/
O=C(Nc1cc(F)cc(F)c1)c1ccc(NCCCN2CCCCCC2)c([N+](=O)[O-])c1	7.8%	1.4%	-1.6%	-3.4	-0.7	1.0%[15.4 µM]	-2.1%
COc1ccccc1/C=C/C=N/n1c(-c2ccc(Cl)cc2)n[nH]c1=S	-7.1%	35.5µM*	-0.5%	0.8	4.8	-7.2%[15.4 µM]	3.1%
O=C(Nc1ccon1)c1cccc(C(F)(F)F)c1	12.3%	8.2%	0.2%[38.3 µM]	-1.0	1.6	12.0%	-0.6%
O=C(CSc1ncnc2sc3c(c12)CCCC3)NC1CCS(=O)(=O)C1 (configuration not stated)	-0.5%	/	0.2%	-2.4	/	?	-7.3%
COc1ccc(-c2cc(N)n(S(=O)(=O)c3c(F)c(F)c(F)c(F)c3F)n2)cc1OC	17.3%	-0.2%	?	-0.1	-0.6	19.6%	-2.9%
Cc1nn(C)c(C)c1CN(C)C(=O)c1cc2nc(-c3ccco3)cc(C(F)(F)F)n2n1	-0.4%	10.7%	6.8%	-1.8	1.4	13.3%	?
COc1ccc(CNC(=O)C(CCSC)NS(=O)(=O)c2ccccc2F)cc1 (configuration not stated)	2.2%	13.0%	-1.2%	4.7	1.2	10.3%	/
Cc1cc(Cl)c(S(=O)(=O)Nc2ccc3c(c2)OCCO3)cc1OCC(N)=O	-5.3%	7.0%	-2.3%	-1.8	1.6	-2.7%	1.4%
Cc1cccc(C(=O)NC(=S)Nc2c(C)n(C)n(-c3ccccc3)c2=O)c1	4.0%	/	2.2%	-0.7	/	14.7%	/
CCOc1ccc(S(=O)(=O)Nc2ccc(S(=O)(=O)N3CCOCC3)cc2)cc1	-3.8%	-11.1%	-4.1%	-1.4	-1.5	-31.1%[inhibitor]	-1.0%
O=C(COc1ccccc1)Nc1ccccc1N1CCN(c2ccccc2)CC1	-8.6%	6.5%	/	-1.4	-0.1	-21.4%	0.4%
Cc1ccc(Cl)cc1NC(=O)C(NS(=O)(=O)c1cccs1)c1ccccc1 (configuration not stated)	0.2%	-13.9%	-0.3%	2.5	0.7	10.4%	-2.4%
COc1ccc([C@H]2CC(=O)C=C(c3ccc(C(=O)O)cc3)C2)cc1OC	-11.2%	/	1.6%	-1.6	/	/	1.4%
CC(=O)NCCc1ccc(S(=O)(=O)Nc2cccnc2)cc1	1.3%	18.6%	/	0.3	2.9	-0.6%	-0.3%
CC(C)Oc1cccc(C(=O)C2CCCN(Cc3cccn3-c3ccccn3)C2)c1 (configuration not stated)	2.3%	10.4%	?	-4.6	-4.4	-32.9%[inhibitor]	-5.1%
CCOC(=O)C(C)n1cnc2c1c(=O)[nH]c(=O)n2C (configuration not stated)	9.2%	23.7%	/	-4.5	0.0	-38.8%[inhibitor]	0.6%
O=C(CCCn1c(=O)oc2ccccc21)N1CCN(c2ccc(F)cc2)CC1	?	9.9%	0.6%	-0.8	3.8	-0.2%[15.4 µM]	/
COc1cccc(COC(=O)C2CC(=O)N(Cc3ccco3)C2)c1OC (configuration not stated)	2.8%	-5.2%	-2.6%	-1.4	/	-89.3%[inhibitor]	-2.8%
COc1cccc(CNC(=O)CSc2nc3ccc(C)cc3[nH]2)c1	0.6%	0.9%	4.0%	-4.6	5.2	-11.2%	-0.9%
CCOc1ccccc1N(C)S(=O)(=O)c1ccc2c(c1)CC(C)N2C(=O)C1CC1 (configuration not stated)	?	12.8%	3.8%	-1.5	7.4	-19.4%	1.5%
Cc1csc(SC(C)C(=O)NCC2CCCO2)n1 (configuration not stated)	7.0%	/	0.5%	-2.9	/	4.8%[15.4 µM]	-17.8%
COc1ccccc1NC(=S)N1CCOCC1	14.5%	1.1%	2.9%	-5.3	5.6	27.7%	1.0%
CCOC(=O)c1ccc2c(c1)nc(COc1ccc3ccccc3c1)n2CC	6.6%	-29.5%	17.4%[38.3 µM]	-3.9	1.0	18.3%	-12.3%
Nc1c(C(=O)Nc2ccc(Br)cc2)sc2nc(N3CCOCC3)c3c(c12)CCCC3	/	/	10.2%	-1.8	/	-14.2%	4.1%
COc1cc(C)c(Cl)cc1S(=O)(=O)NCCCN1CCOCC1	6.8%	12.4%	-0.4%[38.3 µM]	-1.2	1.7	36.9%	1.6%
CCOP(=O)(OCC)c1nc(-c2cccc3ccccc23)oc1NCc1ccc(OC)cc1	-14.1%	-27.1%	0.9%	2.8	-2.7	-0.9%	4.2%
O=C1/C(=C\c2ccccc2)CCC/C1=C/c1ccccc1	-7.7%	/	0.0%	-2.4	/	-7.2%	0.7%
Cc1[nH]c(C)c(S(=O)(=O)N2CCN(c3ccccc3F)CC2)c1C(=O)N1CCCC1	1.3%	22.9%	1.1%	1.6	1.0	19.5%	2.0%
Cc1nc(-c2ccc(F)cc2)c(CC(=O)N(C)CC(=O)Nc2ccccc2Cl)s1	-4.1%	/	-2.0%	-9.8	/	14.1%	-4.0%
CCCC(=O)Nc1ccc(S(=O)(=O)N2CCCC2)cc1	-2.7%	12.7%	-0.1%[38.3 µM]	-1.4	0.7	8.6%	-3.8%
O=C(Nc1cccc(C(=O)O)c1)/C(=C/c1ccc2c(c1)OCO2)NC(=O)c1cccc(Br)c1	-6.4%	?	0.9%	4.4	2.7	4.1%[15.4 µM]	/
Cc1csc(SCC(=O)Nc2cccc(S(=O)(=O)N3CCOCC3)c2)n1	4.3%	10.8%	1.0%	0.7	-0.8	7.6%	-0.9%
O=S(=O)(c1ccc(F)cc1)n1ccc2cccnc21	-20.2%	8.8%	2.4%	-1.1	-0.2	3.9%	-4.2%
Cc1cccc(-c2nc(CS(=O)CC(=O)NC3CCCCC3)c(C)o2)c1 (configuration not stated)	-7.3%	18.4%	-0.9%	-3.0	-0.6	?	-2.8%
COc1ccc(S(=O)(=O)N2CCOCC2)cc1NC(=O)CCCOc1ccc(C(C)=O)cc1	/	/	-0.6%	-4.8	/	6.0%	1.5%
CN(CC(=O)Nc1ccc(Cl)cc1)C(=O)c1ccc(NS(=O)(=O)c2ccc3[nH]c(=O)[nH]c3c2)cc1	9.1%	/	-0.1%	1.9	/	5.7%	-3.2%
COC(=O)CN1C(=O)[C@H]2[C@@H](C3CC3)N3C(=O)CN(Cc4ccccn4)C(=O)[C@@]3(Cc3ccccc3)[C@H]2C1=O	-4.5%	13.6%	1.0%	-0.8	3.2	/	-1.9%
CCCOC(=O)c1ccc(Cl)c(NC(=O)c2ccc(-c3ccccc3)cc2)c1	-2.4%	-5.6%	6.6%[38.3 µM]	-1.1	5.3	-45.1%[inhibitor]	-9.5%
Cc1cc(NC(=O)CSc2nc(=O)n3cccc(C)c3n2)no1	14.2%	/	3.9%	0.2	/	37.8%[15.4 µM]	/
CN(NC(=O)c1ccccc1F)c1ccc([N+](=O)[O-])cn1	20.6%	4.3%	-0.3%	-5.1	1.9	-13.8%[15.4 µM]	/
COc1cc(CCC(=O)OCC(=O)NCc2ccc(Cl)cc2)cc(OC)c1OC	7.1%	6.0%	2.4%	-2.9	-6.4	2.4%[15.4 µM]	/
COc1ccc(/C=C2\CCCc3c2nc2ccc(C)cc2c3C(=O)O)cc1O	-4.0%	-6.0%	0.7%	-0.7	-0.5	15.8%[15.4 µM]	/
